Screening results deposited in PubChem by Center for Chemical Genomics, University of Michigan.
CDC25B-CDK2 inh = primary biochemical HTRF screen for blockers of M-phase inducer phosphatase 2 binding to CDK2/cyclin A; P30305+P24941; HTRF CDC25B-CDK2/CyclinA binding, anti-His/anti-Flag; active compounds read high; z-score (no concentration beside the values); 94,000 compounds, 0.72% hits; AID 1259370, 2018;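 also: score is relative to mean and SD of negative controls; strong numbers were not always called active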
HIV TAR-Tat = TAR RNA-Tat peptide displacers, HIV-1, primary screen, biochemical, FRET, FAM/TAMRA-labeled Tat; HIV-1 TAR RNA, Tat peptide displacement FRET; active compounds read high; z-score (concentration not given with the values); 100,000 compounds, 0.6% hits; AID 1259389, 2018;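 also: score is relative to mean and SD of negative controls; some compounds called inactive have numbers as strong as hits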
The depositor's hits bear a star.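 The calls were made as follows: active = z-score from 3 up in half or more of its runs; inactive = the rest.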

What do the screens show for `COc1ccc(CCNc2ncnc3c2cnn3C)cc1OC`?
HIV TAR-Tat: 1.4

What do the screens show for `CCCCC(=O)N1C2=C(C(=O)c3ccccc32)C(c2ccc(Cl)cc2)c2c1n(C)c(=O)n(C)c2=O` (stereo unspecified)?
CDC25B-CDK2 inh: -23; HIV TAR-Tat: 2.1

What do the screens show for `Cc1cc(C)n2nc(NCc3ccccc3C)nc2n1`?
CDC25B-CDK2 inh: -0.49; HIV TAR-Tat: 3.8

Results for Cc1c(C(=O)O)sc2ncnc(N3CCc4ccccc4C3)c12 ?
HIV TAR-Tat: -7.4

Results for O=C(Nc1ccccc1C(=O)NCC1CCCO1)C1=CSCCO1 (stereo unspecified) ?
HIV TAR-Tat: 0.54

What do the screens show for `CCC(=O)Nc1noc2ccccc12`?
CDC25B-CDK2 inh: -1.1; HIV TAR-Tat: -0.14

How did O=C(NC1CCCC1)C1c2c(ccc3ccccc23)OCC(=O)N1c1ccccc1F (stereo unspecified) do in these assays?
HIV TAR-Tat: 1

How did Cc1cc(C)n(Cc2c(C(=O)NCCc3cccs3)noc2C)n1 do in these assays?
HIV TAR-Tat: 1.4

How did Cc1nc([N+](=O)[O-])cn1CCc1noc(-c2ccc(OC(F)(F)F)cc2)n1 do in these assays?
CDC25B-CDK2 inh: 0.64

How did Cc1ccc(Nc2c(-c3ccco3)nc3ccc(Cl)cn23)cc1 do in these assays?
CDC25B-CDK2 inh: 1.8

How did O=C(CSc1nc2c(c(=O)[nH]1)CCC2)Nc1ccc(F)cc1F do in these assays?
CDC25B-CDK2 inh: -0.88; HIV TAR-Tat: 0.01

Results for COc1cc2c(=O)c(C(=O)c3ccccc3)cn(Cc3ccccc3)c2cc1OC ?
CDC25B-CDK2 inh: -1.9; HIV TAR-Tat: 0.78

What do the screens show for `COCCOC(=O)C1=C(C)N=C2SCCC(=O)N2C1c1ccc(C(=O)OC)cc1` (stereo unspecified)?
CDC25B-CDK2 inh: 0.16; HIV TAR-Tat: 0.1

Results for O=C(NCC1CCCO1)c1ccc(CSc2nc3cccnc3n2Cc2ccccc2F)cc1 (stereo unspecified) ?
HIV TAR-Tat: -0.5

What do the screens show for `CCCNC(=O)C(C)n1ncn2c(cc3occc32)c1=O` (stereo unspecified)?
CDC25B-CDK2 inh: 1.2; HIV TAR-Tat: 1.6

What do the screens show for `CCOC(=O)c1c(NC(=O)c2ccnn2C)sc(C)c1C`?
CDC25B-CDK2 inh: 0.82; HIV TAR-Tat: 2.5

How did Cc1nc(Oc2cccc(F)c2)c2c(C)c(C)sc2n1 do in these assays?
HIV TAR-Tat: 0.24

Results for COc1ccc(C(=O)CC2(O)C(=O)Nc3ccccc32)cc1OC (stereo unspecified) ?
CDC25B-CDK2 inh: 1.1; HIV TAR-Tat: 1.6

What do the screens show for `CC(C(=O)Nc1c(F)cccc1F)N1CCN(c2nccc(C(F)(F)F)n2)CC1` (stereo unspecified)?
CDC25B-CDK2 inh: -2.1

What do the screens show for `Cc1nn(CCCC(=O)NC(C)(C)C)c(=O)c2cc3occc3n12`?
CDC25B-CDK2 inh: -0.27; HIV TAR-Tat: 1.6

2 records drawn at random from the list so far:
How did Cc1cc(C)n(Cc2c(C(=O)NCCc3cccs3)noc2C)n1 do in these assays?
HIV TAR-Tat: 1.4

What do the screens show for `CCCNC(=O)C(C)n1ncn2c(cc3occc32)c1=O` (stereo unspecified)?
CDC25B-CDK2 inh: 1.2; HIV TAR-Tat: 1.6

As a short view, three of the compounds above:
Results for O=C(NCC1CCCO1)c1ccc(CSc2nc3cccnc3n2Cc2ccccc2F)cc1 (stereo unspecified) ?
HIV TAR-Tat: -0.5

What do the screens show for `CCCNC(=O)C(C)n1ncn2c(cc3occc32)c1=O` (stereo unspecified)?
CDC25B-CDK2 inh: 1.2; HIV TAR-Tat: 1.6

What do the screens show for `CCOC(=O)c1c(NC(=O)c2ccnn2C)sc(C)c1C`?
CDC25B-CDK2 inh: 0.82; HIV TAR-Tat: 2.5

Additional compounds:
How did O=C1c2cccnc2C(=O)N1Cc1ccc(S(=O)(=O)NCCc2ccccc2)s1 do in these assays?
HIV TAR-Tat: -0.21

What do the screens show for `O=c1cccc2ccc(O)c(O)c2c1O`?
HIV TAR-Tat: 25*

How did O=C(c1c[nH]c2ccc(Cl)cc2c1=O)N1CCSCC1 do in these assays?
CDC25B-CDK2 inh: -0.62; HIV TAR-Tat: 0.88

How did CCOC(=O)c1cc2c(N)c(C(=O)OCC)sc2nc1C do in these assays?
CDC25B-CDK2 inh: -1.3

Results for c1ccc(-c2csc3ncnc(N4CCOCC4)c23)cc1 ?
CDC25B-CDK2 inh: -0.64; HIV TAR-Tat: -1.1

What do the screens show for `CC(C)c1onc(C(=O)NC2CCCC2)c1[N+](=O)[O-]`?
CDC25B-CDK2 inh: -1.8; HIV TAR-Tat: 2.2

How did N#Cc1c(Cl)cccc1N1CCC(C(N)=O)CC1 do in these assays?
CDC25B-CDK2 inh: -0.3

Results for COc1ccc(Nc2c(-c3ccc(C)o3)nc3ncccn23)cc1OC ?
CDC25B-CDK2 inh: -2.5; HIV TAR-Tat: -0.51

Results for O=C(NC1CCCC1)c1nnc(Cc2ccc3c(c2)OCO3)o1 ?
CDC25B-CDK2 inh: -1.9; HIV TAR-Tat: 1

How did COc1ccc(OC)c(NC2c3ncccc3C(=O)N2c2ccccc2)c1 (stereo unspecified) do in these assays?
HIV TAR-Tat: 0.31

What do the screens show for `O=C(O)c1cc(-c2cccc(O)c2)nc2n[nH]c(-c3ccc(F)cc3)c12`?
HIV TAR-Tat: 0.38

How did O=C(NCc1ccc2c(c1)OCO2)N1c2ccccc2Sc2ccccc21 do in these assays?
CDC25B-CDK2 inh: -1.2

Results for N#Cc1nc(-c2ccc(COc3ccc(Cl)cc3)o2)oc1NCCCN1CCOCC1 ?
CDC25B-CDK2 inh: -0.9; HIV TAR-Tat: 0.04

What do the screens show for `O=C(NC1CCCC1)c1ccc2c(c1)CCN2S(=O)(=O)c1ccc(Br)cc1`?
CDC25B-CDK2 inh: -0.62; HIV TAR-Tat: 1.2

Results for OC[C@H]1O[C@@H](O[C@@H]2OC=C[C@H]3[C@H](O)[C@@H]4O[C@]4(CO)[C@@H]23)[C@H](O)[C@@H](O)[C@@H]1O ?
HIV TAR-Tat: 1.1

What do the screens show for `N#Cc1cnc(Nc2nc3ccccc3s2)nc1-c1ccccc1`?
CDC25B-CDK2 inh: -1.5; HIV TAR-Tat: 2.3

Results for NC(=O)/C(CCCCC(=O)O)=N\O ?
CDC25B-CDK2 inh: -1.2

Results for O=c1[nH]c(-c2ccccc2O)nc2c1Cc1cc(F)ccc1O2 ?
CDC25B-CDK2 inh: -2; HIV TAR-Tat: 3.2

What do the screens show for `CCC(C(=O)OCc1cc(=O)n2nc(C)sc2n1)c1ccccc1` (stereo unspecified)?
HIV TAR-Tat: -1.6

How did O=C(Nc1cccc(Cl)c1)N1CCN(c2nsc3ccccc23)CC1 do in these assays?
CDC25B-CDK2 inh: -1.7; HIV TAR-Tat: 1.1

Three entries already listed, ordered by count of non-hydrogen atoms, high to low.
Results for COc1ccc(Nc2c(-c3ccc(C)o3)nc3ncccn23)cc1OC ?
CDC25B-CDK2 inh: -2.5; HIV TAR-Tat: -0.51

Results for OC[C@H]1O[C@@H](O[C@@H]2OC=C[C@H]3[C@H](O)[C@@H]4O[C@]4(CO)[C@@H]23)[C@H](O)[C@@H](O)[C@@H]1O ?
HIV TAR-Tat: 1.1

How did CCOC(=O)c1cc2c(N)c(C(=O)OCC)sc2nc1C do in these assays?
CDC25B-CDK2 inh: -1.3

The results go on.
What do the screens show for `Cc1cccc(-c2noc(C3CCCN(S(=O)(=O)c4ccc(C(C)C)cc4)C3)n2)c1` (stereo unspecified)?
HIV TAR-Tat: 2.5

How did O=C(Nc1ccc(F)cc1F)C1CCN(c2cnccn2)CC1 do in these assays?
CDC25B-CDK2 inh: -0.98; HIV TAR-Tat: 0.13

How did O=C1c2cccnc2C(=O)N1CCc1ccc(S(=O)(=O)Nc2ccc(F)cc2F)cc1 do in these assays?
HIV TAR-Tat: 0.08

Results for CN1C(C)(C)CC(NC(=O)Nc2ccccc2)CC1(C)C ?
CDC25B-CDK2 inh: -3.5; HIV TAR-Tat: 1.2

How did CCc1c(C)nc(SCc2ccccc2C)c(C#N)c1C do in these assays?
CDC25B-CDK2 inh: -0.91; HIV TAR-Tat: 3.9

How did N#CCCN(CC1CCCO1)S(=O)(=O)c1cccc2nsnc12 (stereo unspecified) do in these assays?
CDC25B-CDK2 inh: -1.2

How did COCCCNC(=O)CSc1ncnc2c1sc1cccc(F)c12 do in these assays?
HIV TAR-Tat: -0.71

What do the screens show for `O=C1CC(c2ccccc2)S(=O)(=O)c2ccccc2N1` (stereo unspecified)?
CDC25B-CDK2 inh: -0.44; HIV TAR-Tat: 1.3

What do the screens show for `CCN(CC)C(=O)c1ccc(CS(=O)c2ccccc2Cl)o1` (stereo unspecified)?
HIV TAR-Tat: 1.1

How did CNC(=O)c1c(NC(=O)c2cc(-c3ccccc3)nc3ccccc23)sc2c1CCC2 do in these assays?
HIV TAR-Tat: -2.3

How did Cc1cc(=O)[nH]c2c1c(C)nn2-c1ccc(Br)cc1 do in these assays?
CDC25B-CDK2 inh: -2.3; HIV TAR-Tat: 0.06

What do the screens show for `O=C(O)CCc1ccc(-c2ccc(F)cc2)n1CC(=O)O`?
CDC25B-CDK2 inh: -0.66; HIV TAR-Tat: -0.75

What do the screens show for `Cc1sc2ncnc(Nc3ccccc3F)c2c1C`?
HIV TAR-Tat: 1.1

How did CC(C)(C)c1nnc2sc(-c3ccccc3F)nn12 do in these assays?
CDC25B-CDK2 inh: -1.4; HIV TAR-Tat: -1.1

How did Cc1ccc(-n2ccc(=O)c(C(=O)Nc3nnc(CC(C)C)s3)n2)cc1 do in these assays?
CDC25B-CDK2 inh: -0.35; HIV TAR-Tat: 1.4

What do the screens show for `COc1cccc(C2Nc3ccccc3NC3=C2C(=O)CC(c2ccc(Cl)cc2)C3)c1OC` (stereo unspecified)?
CDC25B-CDK2 inh: -0.1

Results for Nc1ccccc1Sc1ccc(-c2cnc3ccccc3n2)cc1[N+](=O)[O-] ?
CDC25B-CDK2 inh: -1.3

What do the screens show for `COc1cccc(CNc2nc3c(-c4ccccc4)nnn3c3ccccc23)c1`?
CDC25B-CDK2 inh: -2.5; HIV TAR-Tat: -0.85

How did CC1CC(C)CN(CCCNC(=O)CCn2nc(-c3ccccc3)ccc2=O)C1 (stereo unspecified) do in these assays?
CDC25B-CDK2 inh: -2.3

Results for COc1ccc(Cl)c(Cn2c(NCC3CCCO3)nc3c2c(=O)n(C)c(=O)n3C)c1 (stereo unspecified) ?
CDC25B-CDK2 inh: -0.93; HIV TAR-Tat: 0.71

Results for CCCc1nc2n(n1)C1(CCCCC1)[C@@H]1CCCC[C@@H]1N2C(=O)CC ?
CDC25B-CDK2 inh: -1.1; HIV TAR-Tat: 0.72

How did CN1CCSc2ccc(C(=O)NC3CCCC3)cc21 do in these assays?
CDC25B-CDK2 inh: -0.33; HIV TAR-Tat: 1.5

What do the screens show for `CCCc1nc2nc(C)cc(NCCc3ccc(Cl)cc3)n2n1`?
CDC25B-CDK2 inh: -1.3; HIV TAR-Tat: -0.61

How did O=C1CSc2ccc(S(=O)(=O)N3CC=C(c4ccccc4)CC3)cc2N1 do in these assays?
HIV TAR-Tat: -1.8

How did O=S1(=O)C[C@H](N2CCN(c3ccccn3)CC2)[C@@H](S(=O)(=O)c2ccccc2)C1 do in these assays?
CDC25B-CDK2 inh: -2.4; HIV TAR-Tat: 0.36

How did CCN(CC)c1ccc(C#N)cc1 do in these assays?
CDC25B-CDK2 inh: -1.1

How did COc1ccc(-c2cc(OC(=O)c3cccs3)c3c(C)oc(C)c3c(=O)c2)cc1 do in these assays?
CDC25B-CDK2 inh: -0.45; HIV TAR-Tat: 0.07

What do the screens show for `CCOC(=O)c1nn(-c2ccccc2)c2nc(=O)c(C#N)c(-c3ccccc3)n12`?
CDC25B-CDK2 inh: -2.5

Results for CCc1nnc2c(Nc3ccccc3C)nc3ccccc3n12 ?
CDC25B-CDK2 inh: -0.7; HIV TAR-Tat: 0.38

What do the screens show for `COC(=O)c1ccc(CSc2nnc3ccc4ccccc4n23)cc1`?
CDC25B-CDK2 inh: 0.88; HIV TAR-Tat: -0.17

What do the screens show for `COc1cc(Br)c(CN2CCN(Cc3cc(OC)c(OC)c(OC)c3)CC2)cc1OC`?
CDC25B-CDK2 inh: -2.4

What do the screens show for `CC1CCCCN1S(=O)(=O)C1CCS(=O)(=O)C1` (stereo unspecified)?
CDC25B-CDK2 inh: -2.4; HIV TAR-Tat: 2.6

What do the screens show for `COCCN(CCNS(=O)(=O)c1cc2c(cc1C)NC(=O)CO2)Cc1ccco1`?
HIV TAR-Tat: 1.5

How did CC1(C)Cc2c(sc3ncn4nc(CO/N=C/c5ccccc5Cl)nc4c23)C(C)(C)N1 do in these assays?
CDC25B-CDK2 inh: -1.9

What do the screens show for `Cc1ccc(N2C(=O)Nc3ccccc3S2(=O)=O)cc1`?
HIV TAR-Tat: -1.3

Results for O=C1CCSc2ccc(S(=O)(=O)N3CCc4ccccc4C3)cc2N1 ?
HIV TAR-Tat: -0.91

Results for Cc1cc(=O)n2[nH]c(N3C(=O)C4CCCCC4C3=O)nc2n1 (stereo unspecified) ?
CDC25B-CDK2 inh: 2.3

Results for c1ccc(-c2csc(-c3nc(-c4ccc5c(c4)OCO5)cs3)n2)cc1 ?
HIV TAR-Tat: 1.4

How did CC1(C(=O)NC2CCCC2)Cn2c(cc3sccc32)C(=O)N1C1CCCCC1 (stereo unspecified) do in these assays?
CDC25B-CDK2 inh: -1.2; HIV TAR-Tat: 0.67

What do the screens show for `COc1ccc2c(c1)c(=O)oc1cc(OCc3cc(C(=O)O)oc3C)ccc12`?
CDC25B-CDK2 inh: 0.5; HIV TAR-Tat: 0.92
